LANA-H2A inh = blocks KSHV LANA binding to histone H2A/H2B. inhibition, % (no concentration beside the values). 0.6% of 320,000 active. cell-free LANA-H2A/H2B peptide, fluorescence polarization; in the data active = inhibition mostly above about 10%, no sharp cut-off; inactive = mostly below about 6.7%;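 also: stock transfer was 7.5 nL into about 10 µL; 0% = median of vehicle wells and 100% = median of positive control wells; one replicate is shown; the record names a cut of 25% in any replicate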
Target sequence (Q9QR71 whole entry, looked up): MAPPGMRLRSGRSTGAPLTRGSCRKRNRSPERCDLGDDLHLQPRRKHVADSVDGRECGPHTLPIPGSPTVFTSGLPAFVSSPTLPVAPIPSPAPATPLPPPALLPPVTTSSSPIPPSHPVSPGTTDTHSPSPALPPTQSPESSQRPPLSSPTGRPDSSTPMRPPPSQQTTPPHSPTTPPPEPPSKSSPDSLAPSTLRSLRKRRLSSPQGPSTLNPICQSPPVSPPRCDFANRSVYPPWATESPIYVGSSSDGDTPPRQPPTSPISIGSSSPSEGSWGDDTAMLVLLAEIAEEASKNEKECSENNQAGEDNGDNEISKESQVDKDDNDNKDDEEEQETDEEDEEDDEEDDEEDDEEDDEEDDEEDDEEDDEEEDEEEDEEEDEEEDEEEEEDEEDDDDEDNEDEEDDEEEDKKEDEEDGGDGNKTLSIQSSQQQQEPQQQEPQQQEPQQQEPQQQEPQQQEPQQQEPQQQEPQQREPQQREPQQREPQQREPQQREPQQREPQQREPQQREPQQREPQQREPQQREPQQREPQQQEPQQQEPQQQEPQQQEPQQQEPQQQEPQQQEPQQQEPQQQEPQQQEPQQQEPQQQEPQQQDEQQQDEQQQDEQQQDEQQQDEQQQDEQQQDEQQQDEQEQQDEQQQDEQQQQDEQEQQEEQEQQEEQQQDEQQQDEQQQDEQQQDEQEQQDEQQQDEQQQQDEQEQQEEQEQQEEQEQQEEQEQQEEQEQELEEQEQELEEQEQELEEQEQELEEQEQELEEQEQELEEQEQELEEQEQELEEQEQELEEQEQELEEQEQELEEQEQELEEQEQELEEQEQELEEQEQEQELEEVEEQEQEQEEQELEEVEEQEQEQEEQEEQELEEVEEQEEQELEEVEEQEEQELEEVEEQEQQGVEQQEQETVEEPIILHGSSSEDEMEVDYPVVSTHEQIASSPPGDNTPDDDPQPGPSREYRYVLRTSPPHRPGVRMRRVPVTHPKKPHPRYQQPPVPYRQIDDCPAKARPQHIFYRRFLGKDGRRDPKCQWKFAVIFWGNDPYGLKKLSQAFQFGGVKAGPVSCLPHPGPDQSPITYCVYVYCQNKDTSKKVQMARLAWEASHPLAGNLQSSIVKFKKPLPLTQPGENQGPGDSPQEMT
rRNA inh HTS = inhibits bacterial ribosomal RNA function over humanized ribosomes; E. coli WT GFP vs humanized-ribosome RFP mutants, fluorescence, 24 h; active compounds read low; DMSO median 0, no signal -100; GFP signal change (wild-type ribosome), % (no concentration beside the values); 1.6% of 350,000 active;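 active = significant combined selectivity score with lowered wild-type GFP, culture density cut under 30%, mutant RFP and density less affected; inactive = any of these conditions unmet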; also: one replicate is shown; some compounds called inactive have numbers as strong as hits
ALR inh = human ALR oxidase inhibition via reduced H2O2; P55789; inhibition, % (test concentration not listed); 3.8% of 290,000 active; AID 485317; purified ALR, DTT oxidation, H2O2 HRP-luminol luminescence;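 active = mean and each replicate at 75% or more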;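 also: stock transfer was 7.5 nL into about 7.5 µL; 0% = neutral wells and 100% = wells with inactivated enzyme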
Beta cell apopt = blocks beta cell apoptosis | INS-1E cytokine-induced death, ATP luminescence, 48 h; percent of positive-control rescue, neutral wells zero | protection from apoptosis, % (no concentration beside the values) | 0.8% of 300,000 active | AID 435005;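 active = all replicates at 75% or more, or half of them and the mean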;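 also: 0% = cytokine-treated negative control wells and 100% = positive control rescue; higher means more ATP so stronger rescue from cytokine killing; wells of about 40 µL received 100 nL stock; the first replicate is given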
Beta2AR agonist = activates human beta-2 adrenergic receptor causing internalization; P07550; Am2.2-beta2AR cells, FAP receptor internalization, flow cytometry; reference of the scale not given here; response, % (concentration not given with the values); 0.43% of 340,000 active;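 active = response above a set limit, near 3 SD of response in nonfluorescent compounds, cut at about 42% in these data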;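 also: stock transfer was 100 nL into about 11 µL; a reference agonist was the positive control; negative values mostly stem from fluorescent compounds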
Bfl-1 A1 inh = inhibitors of the anti-apoptotic protein A1, read as caspase activation. MEF A1-2A-BIM cells, Caspase-Glo 3/7 luminescence, 3 h; percent of clofoctol response, vehicle zero. caspase activation, % (concentration not given with the values). 0.066% of 330,000 active. AID 2462;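 active = over half of replicate activation scores above 10%, or exactly half above 10 with the replicate mean above 10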;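 also: wells of about 30 µL received 50 nL stock; many hits fall short of the cut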
T cruzi repl = blocks replication of Trypanosoma cruzi. T. cruzi beta-gal in NIH3T3, luminescence, 90 h. inhibition, % (concentration not given with the values). 1.4% of 300,000 active;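 active = mean inhibition across valid replicates above about 55%, limit read from the data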;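 also: signal also drops with host cell toxicity which is not excluded here; 0% = plate median of DMSO wells and 100% = zero luminescence signal; higher percent means less beta-gal luminescence so fewer parasites; stock transfer was 50 nL into about 50 µL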
Calb FLC = affects C. albicans growth with fluconazole; C. albicans CaCi-2 (fluconazole-resistant clinical isolate) + fluconazole, Alamar Blue growth, 48 h; growth inhibition, % (no concentration beside the values); 0.57% of 300,000 active;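 active = most replicates above 75%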;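 also: all wells also contain fluconazole at 8 µg/ml as a sub-toxic cotreatment; 0% = median of DMSO wells and 100% = median of geldanamycin control wells; wells of about 8 µL received 7.5 nL stock; the first replicate is given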
rRNA inh HTS OD600 = also measured in rRNA inh HTS; calls as there; OD600 change, %; measured here: OD600 growth;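 optical density of the mix in the first replicate; 0 = DMSO median and -100 = no signal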
rRNA inh HTS RFP = further read-out of rRNA inh HTS, marked with its call; RFP signal change, %; measured here: RFP humanized mutant strains;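 first replicate; 0 = DMSO median and -100 = no signal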
An asterisk follows results filed as active; i = inactive; x = not tested or not shown. A portion of the library, so the mix of outcomes need not match the whole.

SMILES | LANA-H2A inh | rRNA inh HTS | rRNA inh HTS OD600 | rRNA inh HTS RFP | ALR inh | Beta cell apopt | Beta2AR agonist | Bfl-1 A1 inh | T cruzi repl | Calb FLC
CN1CCN(C(=O)C2CCCN(S(=O)(=O)c3ccc(F)cc3)C2)CC1 (stereo unspecified) | 1.7 | 0 | 5 | -2.5 | -3 | -4 | 6 | 0.0 | 0 | -17
COc1cccc(CC(=O)Nc2nc(-c3cc(OC)ccc3OC)cs2)c1 | 0.4 | -24* | -8.2* | -0.3* | 1 | 2 | 8 | 0.4 | 43 | 3
Cc1ccc(C)c(NC(=O)CN(C)C(=O)c2cc([N+](=O)[O-])ccc2N2CCOCC2)c1 | 0.7 | 0 | 3 | 0.7 | -2 | x | 3 | 0.9 | 10 | -1
CC1CCCN(S(=O)(=O)c2ccc(C(=O)Nc3nnc(C4=COCCO4)o3)cc2)C1 (stereo unspecified) | -12 | -12 | -11 | -5.2 | 98* | -1 | 2 | -0.1 | 0 | 39
CCn1c(C)cc(C(=O)CN2C(=O)c3ccccc3S2(=O)=O)c1C | 0.2 | 5 | 10 | 1.3 | 32 | -6 | -5 | 0.4 | x | x
COc1ccc(Cl)cc1N(CC(=O)N1CCCC1)S(C)(=O)=O | 1.6 | 16 | 3 | 2.3 | -7 | -9 | 1 | 0.3 | -10 | 5
Nc1nc(-c2ccc(Cl)cc2)nnc1-c1ccc(Br)cc1 | 5.1 | 8 | 13 | 3.9 | x | -1 | 0 | -1.1 | 25 | 13
CCOc1ccc2nc(SCC(=O)N3CCCCCC3)c(C#N)cc2c1 | 4.3 | x | x | x | -2 | 8 | 7 | 0.6 | 32 | -6
O=C(NC1C2CC3CC(C2)CC1C3)C1CCCCC1 (stereo unspecified) | -0.9 | 8 | 11 | -1.2 | 4 | -2 | 0 | 1.6 | -3 | -20
CC(C)CN1CCN=C1Nc1ccccc1 | -4.6 | 6 | 1 | 9.5 | 0 | -6 | -1 | -0.1 | -4 | 0
CC(=O)Nc1ccc(NC(=O)C2CCN(c3c(Cc4ccccc4)c(C)nc4ncnn34)CC2)cc1 | 1.0 | x | x | x | -4 | -13 | 1 | -0.1 | 2 | 0
N#C/C(=C\c1ccc(Cl)cc1)C(=O)Nc1cccnc1 | 1.8 | 21 | 5 | 3.5 | x | 3 | 5 | 0.0 | -9 | 0
Cc1cccc(C(=O)c2c(N)sc3c2CCC(C)C3)c1 (stereo unspecified) | 3.7 | -5 | -1 | -2.9 | -10 | 1 | -7 | -0.3 | 6 | 1
O=C(N/N=C\c1cc(Cl)ccc1O)c1ccc(S(=O)(=O)N2CCCCC2)cc1 | -1.0 | x | x | x | 0 | 97* | 3 | -0.4 | 51 | 92*
COc1ccc(-c2nc(SCc3ccc(C#N)cc3)[nH]c(=O)c2C#N)cc1 | 2.1 | 10 | 5 | -1.2 | x | -3 | 5 | 0.2 | -3 | -2
O=C(COc1cccc2cccnc12)Nc1cccc(S(=O)(=O)N2CCCC2)c1 | -4.9 | -19 | -17 | 19 | -8 | -4 | 27 | -0.1 | x | x
CCOC(=O)N1CCN(C(=O)c2cccc(-n3c(=S)[nH]c4cc(Cl)ccc4c3=O)c2)CC1 | 0.5 | x | x | x | 79* | 7 | -5 | 0.5 | 14 | -15
Cc1c(/C=C(\CC(=O)O)c2nc3ccccc3s2)cc(C#N)n1C | -9.8 | -12 | -8 | -0.8 | -2 | 7 | 1 | -0.2 | -4 | 11
CC(NS(=O)(=O)OCC(Cl)(Cl)Cl)c1ccc(C(C)(C)C)cc1 (stereo unspecified) | -1.3 | -40 | -55 | 29 | 7 | 9 | 24 | -0.3 | 28 | -13
COc1ccc(NC(=O)Nc2cc(C)ccc2OC(F)F)c(OC)c1 | 4.7 | x | x | x | -6 | -1 | 7 | x | 15 | 5

Marked active in ALR inh (from the list above):
mol | LANA-H2A inh | rRNA inh HTS | rRNA inh HTS OD600 | rRNA inh HTS RFP | ALR inh | Beta2AR agonist
CC1CCCN(S(=O)(=O)c2ccc(C(=O)Nc3nnc(C4=COCCO4)o3)cc2)C1 (stereo unspecified) | -12 | -12 | -11 | -5.2 | 98* | 2
CCOC(=O)N1CCN(C(=O)c2cccc(-n3c(=S)[nH]c4cc(Cl)ccc4c3=O)c2)CC1 | 0.5 | x | x | x | 79* | -5

Further structures.
SMILES | LANA-H2A inh | rRNA inh HTS | rRNA inh HTS OD600 | rRNA inh HTS RFP | ALR inh | Beta cell apopt | Beta2AR agonist | Bfl-1 A1 inh | T cruzi repl | Calb FLC
Fc1cccc(-c2c(-c3ccccc3)ncc3cc(F)ccc23)c1 | 0.7 | -3 | -2 | 0.9 | -3 | 8 | -3 | 0.2 | x | x
CCCC(C(=O)NC1CCCC1)N(Cc1cccs1)C(=O)c1snc(C(N)=O)c1N (stereo unspecified) | 1.6 | x | x | x | x | x | 0 | 0.4 | 7 | -2
COc1ccc(Cn2c(=O)sc3ccccc32)cc1 | 3.5 | x | x | x | -3 | -2 | 7 | -0.1 | -10 | -4
Cc1cc(=O)[nH]c(SCc2cccc(F)c2)n1 | 2.8 | x | x | x | 0 | x | 9 | -1.3 | -11 | -4
COc1ccc(-c2cc(C)no2)cc1S(=O)(=O)N1CCN(C(=O)c2ccco2)CC1 | 0.2 | 1 | -4 | 1.1 | 1 | -5 | -19 | -0.6 | -5 | 12
COc1ccccc1C(=O)n1nc(-c2ccccc2)nc1NCc1ccco1 | 5.0 | x | x | x | x | -2 | -4 | 0.2 | -7 | -1
CCOC(=O)c1cnc2ccc(C(=O)OC)cc2c1NCCCN1CCOCC1 | 2.1 | -21 | -15 | -2.4 | -1 | -1 | -3 | 0.5 | 15 | 5
CCOc1ccc(N(CC(=O)Nc2ccc(C)cc2C)S(C)(=O)=O)cc1 | -0.8 | 6 | 10 | -0.4 | 4 | -1 | -9 | 0.1 | -13 | -4
O=C(c1ccccc1C(=O)N1CCN(c2ccccc2F)CC1)N1CCN(c2ccccc2F)CC1 | 0.2 | x | x | x | 4 | 6 | -4 | 0.1 | -10 | -7
O=C(CCN1C(=O)/C(=C/c2ccccc2)SC1=S)NNC(=O)c1ccncc1 | 0.5 | 10 | 19 | -0.4 | -3 | x | 4 | -0.4 | 5 | 4
CCOC(=O)c1cnc(SC)nc1Sc1ccc(Cl)cc1Cl | 1.3 | x | x | x | 1 | 14 | 4 | -0.5 | 14 | 29
CCOc1ccc(NC(=O)C(c2ccccn2)N(C(=O)CCl)c2ccc(OCC)cc2)cc1 (stereo unspecified) | i | x | x | x | -5 | 4 | -21 | -0.1 | x | x
COc1ccc(CCNC(=O)CCSCc2ccccc2F)cc1OC | 0.8 | 3 | -8 | -0.2 | -5 | -1 | -12 | -0.3 | -11 | -3
COc1cc(/C=N/NC(=O)c2cccc(NC(=O)c3ccccc3C)c2)ccc1O | 2.0 | -4 | 5 | -1.2 | 95* | x | 9 | -0.3 | 4 | -10
COc1ccc(C2C(C(=O)N3CCN(c4ccccn4)CC3)CC(=O)N2c2ccc(OC)cc2)cc1 (stereo unspecified) | 0.0 | x | x | x | -9 | -2 | -6 | 1.4 | -10 | 15
COc1ccc(NC(=O)CSc2nc3ccccc3c(=O)n2CCCN2CCC(C)CC2)c(OC)c1 | -2.7 | -9 | -7 | 3.3 | x | -6 | 18 | 0.7 | 26 | -2
CCOc1ccccc1NS(=O)(=O)c1csc(C(N)=O)c1 | -3.1 | -2 | 9 | -2.4 | -2 | 3 | 4 | 0.6 | -5 | -4
COc1ccc(/C=C/C2=CCN(Cc3ccc(OC)cc3)CC2)cc1 | 3.5 | 2 | -13 | -4.0 | -5 | 63 | 5 | -0.2 | 58* | -25
CC(C)Cn1c(N)c(C(=O)COC(=O)c2cnccn2)c(=O)n(C)c1=O | -1.0 | 6 | 7 | -2.1 | -17 | 0 | -4 | 0.6 | -11 | 0
C/C(=N\NC(=O)c1cc(-c2ccncc2)nc2ccccc12)c1ccc(N2CCOCC2)cc1 | -0.1 | 7 | 7 | -4.0 | -8 | 8 | 3 | 0.6 | 24 | -3

Limited to rRNA inh HTS, Calb FLC and ALR inh, for 2 of the compounds above:
| mol | rRNA inh HTS | Calb FLC | ALR inh |
| --- | --- | --- | --- |
| CCOc1ccc(N(CC(=O)Nc2ccc(C)cc2C)S(C)(=O)=O)cc1 | 6 | -4 | 4 |
| O=C(c1ccccc1C(=O)N1CCN(c2ccccc2F)CC1)N1CCN(c2ccccc2F)CC1 | x | -7 | 4 |

The list continues.
SMILES | LANA-H2A inh | rRNA inh HTS | rRNA inh HTS OD600 | rRNA inh HTS RFP | ALR inh | Beta cell apopt | Beta2AR agonist | Bfl-1 A1 inh | T cruzi repl | Calb FLC
CC(C)N(C(=O)CS(=O)(=O)c1ccc(Cl)c(Cl)c1)C(C)C | 2.9 | 11 | 15 | 2.2 | 7 | -1 | -7 | -0.2 | 1 | -8
COc1ccccc1CNC(=O)C1CC(c2ccccc2F)=NO1 (stereo unspecified) | 0.9 | -15 | -7 | 0.2 | x | 1 | -6 | 0.7 | -1 | 23
COc1ccc(NS(=O)(=O)c2c(C)cc(C)cc2C)cc1 | -0.4 | x | x | x | -10 | -1 | -5 | 0.6 | -9 | 32
Cc1ccccc1N1C(=O)C(Oc2ccc(Cl)cc2)C1CNCCCOC(C)C (stereo unspecified) | -2.6 | -46 | -77 | -8.1 | 2 | -3 | -6 | 0.2 | 17 | -3
O=C(CN1C(=O)NC2(CCc3ccccc32)C1=O)Nc1cccc(Cl)c1 (stereo unspecified) | -2.0 | -30* | -17* | -0.3* | -4 | -4 | 7 | 0.7 | x | x
COc1ccc(C)cc1NC(=O)CSc1nnc(CC(=O)Nc2ccccc2C)n1C | -3.3 | x | x | x | -6 | -4 | -3 | 0.3 | 6 | 35
CCOC(=O)C1CCN(S(=O)(=O)c2ccc3[nH]c4c(c3c2)CCCC4)CC1 | 0.4 | -14 | -62 | 15 | 5 | x | -7 | 0.3 | 0 | 1
O=C(CSc1nc(Nc2ccccc2)nc(N2CCOCC2)n1)Nc1ccc(Br)cc1F | -0.1 | 7 | 7 | 2.6 | -1 | 43 | 1 | 0.4 | 46 | 47
C#CCOCCOCCOCCNc1nc(N2CCN(C(=O)[C@H](CCC(=O)O)n3cc(C(N)CC(C)C)nn3)CC2)nc(N2CCN(C(=O)[C@H](Cc3ccc(O)cc3)n3cc(C(N)[C@H](C)CC)nn3)CC2)n1 (stereo partly specified) | 2.8 | x | x | x | 3 | -5 | x | 1.3 | -10 | 9
O=C1C2C3C=CC(CO)(O3)C2C(=O)N1c1ccccc1-c1ccccc1 (stereo unspecified) | 0.4 | x | x | x | 4 | -16 | 55* | 1.5 | x | x
Cn1c(N)c(C(=O)COC(=O)COc2ccc(Cl)cc2)c(=O)n(C)c1=O | 0.0 | 3 | 4 | -0.7 | x | -5 | -8 | -0.8 | x | x

Entries listed so far that contain bromine:
SMILES | LANA-H2A inh | rRNA inh HTS | rRNA inh HTS OD600 | rRNA inh HTS RFP | ALR inh | Beta cell apopt | Beta2AR agonist | Bfl-1 A1 inh | T cruzi repl | Calb FLC
Nc1nc(-c2ccc(Cl)cc2)nnc1-c1ccc(Br)cc1 | 5.1 | 8 | 13 | 3.9 | x | -1 | 0 | -1.1 | 25 | 13
O=C(CSc1nc(Nc2ccccc2)nc(N2CCOCC2)n1)Nc1ccc(Br)cc1F | -0.1 | 7 | 7 | 2.6 | -1 | 43 | 1 | 0.4 | 46 | 47
